Bead autofluor: flagged as autofluorescent in microsphere protease counterscreen | compound autofluorescence counterscreen, microsphere flow cytometry; active compounds read high | fluorescence intensity (test concentration not listed) | 360,000 compounds, 3.1% hits | AID 624483;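 active means at least 3 SD above the mean of all compounds, about 16000 in these data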;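 further: 100 nL of 1 mM stock went into each well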
Active calls of the source: *. This is a subset. The share of hits here may be higher or lower than overall.

SMILES	Bead autofluor
Cc1ccc([C@H]2N[C@]3(CCCN(CC4CCCCC4)C3=O)[C@H]3C(=O)N(Cc4ccccc4)C(=O)[C@@H]23)cc1	3926
Cn1c(CCN2CCCC2)nc2cc(NC(=O)COc3ccc(Cl)cc3)ccc21	5968
COc1ccc(OC)c(CN2CCN(C(=O)c3cccc(S(=O)(=O)N(C)c4ccccc4)c3)CC2)c1	3832
COCCNC(=O)C1(C)CCCN(Cc2ccc(C)c3ccccc23)C1 (configuration not stated)	3461
CC1(C)OC(=O)C2=C(C[C@@H](C3CCCCC3)O[C@H]2c2ccccc2)O1	6204
Cc1cc(Br)cn2c(CC(C)(C)C)c(C3CCCCC3)nc12	4524
C[C@H](NC(=O)[C@@H]1CCCN1C(=O)[C@@H]1CCCN1C(=O)OC(C)(C)C)c1ccccc1	4856
CN1CCN(c2ccc(CNC(=O)C3(C)Cc4c(-c5ccccc5)ccnc4O3)cc2)CC1 (configuration not stated)	3509
CC(C)CN1C(=O)c2ccccc2C1c1nnnn1-c1ccc2c(c1)OCCO2 (configuration not stated)	5818
CCCCNC(=O)C1(C)CCCCN1C(=O)c1ccc(C)c(F)c1 (configuration not stated)	4004
CCOc1ccc(NS(=O)(=O)c2cccs2)cc1S(=O)(=O)N1CCCC1	2985
Cc1noc(C)c1NC(=O)N(C)C[C@H]1OCc2cnnn2CCCC(=O)N([C@H](C)CO)C[C@H]1C	4589
Cc1ccc(S(=O)(=O)N(C)C[C@@H]2OCc3cnnn3CCCC(=O)N([C@H](C)CO)C[C@@H]2C)cc1	3596
COCCCNC(=S)N1CCN(c2nc(-c3ccc(Cl)cc3)cs2)CC1	3732
S=C(NCCc1ccccc1)N1Cc2ccccc2-n2nncc2C1	3435
CCC(=O)N1CCCC(C)(C(=O)Nc2ccc(C)c(C)c2)C1 (configuration not stated)	3734
C[C@@H]1CN([C@@H](C)CO)C(=O)CCCn2nncc2CO[C@@H]1CN(C)S(=O)(=O)c1ccc(Cl)cc1	3230
COc1ccc(Br)c(Cn2c(C)c(C(=O)NCCC#N)sc2=O)c1	4102
Nc1ccc2c(c1)C1(CCC2)NC(=O)NC1=O (configuration not stated)	3621
COc1ccc(Nc2nc3cc(-c4ccccc4C)sc3c(=O)n2C)cc1OC	3679
Cc1ccc([C@H]2C[C@H](n3cc(COC(=O)c4ccccc4)nn3)[C@@H](O)CN2Cc2cccs2)cc1	3844
COc1ccc(NC(=O)C2(C)Cc3c(-c4cccc(C(F)(F)F)c4)ccnc3O2)cc1OC (configuration not stated)	3635
NC(=O)c1ccsc1NC(=O)COC(=O)Cc1ccccc1[N+](=O)[O-]	2851
Cc1cc(C(O)c2ncc(-c3ccccc3)[nH]2)ccc1F (configuration not stated)	3756
CSCC[C@@H](CO)NC(=O)[C@H]1O[C@@H](n2ccc(=O)[nH]c2=O)[C@H](O)[C@@H]1O	5492
COc1cccc(C(=O)N2CCC[C@H]2C(=O)N2CCC[C@H]2C(=O)N[C@H](C)c2ccccc2)c1	4166
O=C(SCc1c(O)c2ccccc2oc1=O)c1ccccc1	2809
CC(C)c1nc(SCC(=O)N2CCCCC2)c2c(=O)n(C)c(=O)n(C)c2n1	2860
CCCCN1C[C@H](CSC)[C@@H](CC(=O)NC)C1=O	3394
O=C(/C=C/[C@H]1O[C@@H](n2ccc(=O)[nH]c2=O)[C@H](O)[C@@H]1O)NCc1ccccn1	4536
O=c1[nH][nH]c2c1[C@H](CCc1cccc(Cl)c1)O[C@H](C1CCCC1)C2	6078
COC(=O)[C@@]1(Sc2ccc(C)cc2)CC(=O)N(C(=O)C2CC2)[C@@H]1c1ccccc1	5717
CC(=O)Nc1cc(-c2cccc(C(=O)NCCN(C)C)c2)cn2c(-c3ccc(C(C)=O)cc3)cnc12	3546
CC(C)C[C@H]1CNC(=S)N1C[C@H]1CCCN1C[C@H](Cc1ccc(O)cc1)N1C[C@H](Cc2ccccc2)N(CC2CCCCC2)C1=S	4488
CC(C)C[C@H]1COc2cc(N3CC[C@@H](O)C3)ccc2S(=O)(=O)N1	5132
CCc1nc2c(OCc3ccc(F)cc3)cccn2c1N(C)C(=O)c1ccc(C)cc1	3699
CC1=C(C(=O)N(C(C)C)C(C)C)CC(CC(=O)NCCCN(C)C)C(=O)N1Cc1ccc(F)cc1 (configuration not stated)	5785
C[C@@H]1CN([C@H](C)CO)S(=O)(=O)c2ccc(C#CCN(C)C)cc2O[C@@H]1CN(C)Cc1ccccc1F	3810
CCCCNC(=O)C1(C)CCN1Cc1cccc2c(OC)cc(C(=O)OCC)cc12 (configuration not stated)	3029
O=C1c2ccccc2CCC12OC2c1ccncc1 (configuration not stated)	2786

Continued; the last 2 above are carried over.
SMILES	Bead autofluor
CCCCNC(=O)C1(C)CCN1Cc1cccc2c(OC)cc(C(=O)OCC)cc12 (configuration not stated)	3029
O=C1c2ccccc2CCC12OC2c1ccncc1 (configuration not stated)	2786
COC(=O)[C@]1(Sc2ccc(C)cc2)CC(=O)N[C@@H]1c1ccco1	4484
COc1ccc(OC(=O)N(C)C[C@H]2OCc3cnnn3CCCC(=O)N([C@H](C)CO)C[C@@H]2C)cc1	2941
O=S1(=O)CC(N2CCSCC2)CN1Cc1cn(Cc2cccc(Cl)c2)nn1 (configuration not stated)	5081
O=C(N/C(=C/c1cccc(Br)c1)C(=O)N1CCOCC1)c1ccco1	3983
O=c1[nH]cc(Cc2ccccc2)c(=O)[nH]1	3471
CCc1nc2ccc(C(=O)Nc3cccc(OCC(=O)N(C)C)c3)cn2c1N(C=O)Cc1ccc(OC)cc1	3810
Cc1ccc(CNC(=O)CC[C@H]2O[C@@H](n3cc(C)c(=O)[nH]c3=O)C[C@@H]2O)o1	6087
COc1ccc(CNC(=O)C2(C)Cc3c(-c4ccc(C(N)=O)cc4)ccnc3O2)cc1OC (configuration not stated)	2958
Cc1cc(C(=O)N2CCC2(C)C(=O)NS(=O)(=O)c2cccc(OC(F)F)c2)nn1C (configuration not stated)	3789
CCCCNC(=O)CN1C(=O)CSc2ccc(S(=O)(=O)N3CCOCC3)cc21	3549

Next part (4 carried over from the part before).
SMILES	Bead autofluor
Cc1ccc(CNC(=O)CC[C@H]2O[C@@H](n3cc(C)c(=O)[nH]c3=O)C[C@@H]2O)o1	6087
COc1ccc(CNC(=O)C2(C)Cc3c(-c4ccc(C(N)=O)cc4)ccnc3O2)cc1OC (configuration not stated)	2958
Cc1cc(C(=O)N2CCC2(C)C(=O)NS(=O)(=O)c2cccc(OC(F)F)c2)nn1C (configuration not stated)	3789
CCCCNC(=O)CN1C(=O)CSc2ccc(S(=O)(=O)N3CCOCC3)cc21	3549
COc1ccc(N2CC(C)(C)[C@H](CC(=O)Nc3ccc(Br)cc3)C2=O)cc1	3639
Cc1cccc(C)c1NC(=O)C1(C)CCC(=O)N1C1CCN(Cc2ccccc2)CC1 (configuration not stated)	6702
CC(C)c1ccc(S(=O)(=O)NCCCN2CCOCC2)cc1	2783
Cc1ccccc1-c1cc2nc(NCc3ccccc3F)n(C)c(=O)c2s1	2914
CCOC(=O)c1c(NC(=S)SC)sc(C(=O)N2CCc3ccccc3C2)c1C	3553
COc1ccc(CN2C(=O)C(CC(=O)NCc3cccs3)CC(C(=O)N(C)C)=C2C)cc1 (configuration not stated)	3956
O=C(NCc1cccc(C(F)(F)F)c1)c1ccc2sc([C@@H]3O[C@H](CO)[C@H](O)[C@H](O)[C@H]3O)nc2c1	3820
COc1ccc2c(C)cc(=O)oc2c1OCC(O)CN1CCOCC1 (configuration not stated)	5965
COc1ccc(NC(=O)C2Cc3c(-c4cccc(NC(C)=O)c4)ccnc3O2)cc1 (configuration not stated)	3628
CC(=O)N(C)C[C@@H]1Oc2ncc(C#Cc3ccc(F)cc3)cc2C(=O)N([C@@H](C)CO)C[C@H]1C	3607

Some of the entries so far, with each value named.
COc1ccc(CN2C(=O)C(CC(=O)NCc3cccs3)CC(C(=O)N(C)C)=C2C)cc1 (configuration not stated)
  Bead autofluor: 3956
O=C(NCc1cccc(C(F)(F)F)c1)c1ccc2sc([C@@H]3O[C@H](CO)[C@H](O)[C@H](O)[C@H]3O)nc2c1
  Bead autofluor: 3820
COc1ccc2c(C)cc(=O)oc2c1OCC(O)CN1CCOCC1 (configuration not stated)
  Bead autofluor: 5965
COc1ccc(NC(=O)C2Cc3c(-c4cccc(NC(C)=O)c4)ccnc3O2)cc1 (configuration not stated)
  Bead autofluor: 3628

Next section.
SMILES	Bead autofluor
CC(=O)OCC(O)C1(O)CCC2C3CCC4=CC(=O)CCC4(C)C3C(O)CC21C (configuration not stated)	5430
CCCNC(=O)C1(C)CCN(C(=O)c2ccc(OC)cc2OC)C1 (configuration not stated)	3068
CC(=O)c1c(C)[nH]c(C(=O)OCC(=O)NCc2ccccc2)c1C	3760
COc1ccccc1Cn1c(C)c(C(=O)NCc2ccc(C#N)cc2)sc1=O	5389
C=CCN(CC=C)Cc1cc(=O)oc2cc(C)c(C)cc12	4206
CC(C)C1C(=O)N(Cc2cn(CC3CCCCC3)nn2)CCS(=O)(=O)N1Cc1ccc(-c2ccc(Cl)nc2)cc1 (configuration not stated)	3771
CCCCc1nc2ccc(F)cc2cc1C	6423
CN[C@@H](C)C(=O)NC[C@H]1O[C@@H](n2cnc3c(=O)[nH]c(N)nc32)[C@H](O)[C@@H]1O	5601
CC(C)Oc1ccccc1OC1(C)CCN(Cc2ccc(OC(F)(F)F)cc2)C1 (configuration not stated)	2970
O=C(CCN1CCN(Cc2ccccc2)CC1)NNC(=O)c1ccc(Cl)c(Cl)c1	3581
C[C@H](CO)N1C[C@H](C)[C@@H](CN(C)Cc2ccc(C(=O)O)cc2)OCc2cnnn2CCCC1=O	3447
CCc1noc(C)c1C(=O)NCCN1C(=O)S/C(=C\c2ccccc2F)C1=O	3479
COc1ccc(NC(=O)C[C@H]2C(=O)N(C3CCCCC3)C[C@@H]2C)cc1	3432
Cc1ccc(Cc2c(-c3cccc(Br)c3)nc3ccc(Cl)cn23)cc1	7487
Cc1ccc(C(=O)OCC(=O)NCc2ccccc2)s1	3621
COc1ccc(S(=O)(=O)N2CCCCC2c2cc(C(=O)NCc3ccc(F)cc3)no2)cc1 (configuration not stated)	2845
CCc1nc2c(OCCC3CCCCC3)cccn2c1N(C)C(=O)c1ccc(OC)cc1	3960
Cc1nc(SCC(=O)c2cc(C)n(C3CC3)c2C)c2ccccc2n1	3995
CCc1nc2c(OCc3c(C)noc3C)cccn2c1N(C=O)Cc1ccccc1	3090
Cc1cc(Cl)ccc1C(O)c1ncc(-c2ccc(F)cc2)[nH]1 (configuration not stated)	3895
CCN(CC(=O)Nc1c(F)cccc1F)C(=O)CCCN1C(=O)c2ccccc2C1=O	3073
CC1(C(=O)NS(=O)(=O)c2ccc(Cl)cc2)CCN1C(=O)CCc1ccccc1 (configuration not stated)	3931
O=C(Nc1cccc(OC(F)(F)F)c1)C1Cc2c(-c3ccccc3Oc3ccccc3)ccnc2O1 (configuration not stated)	4142
CC1=CC(C)(C(Cl)(Cl)Cl)C(C)=CC1=NO (configuration not stated)	3417
Cn1c(NCc2ccccc2)nc2cc(-c3cccc(C(F)(F)F)c3)sc2c1=O	4069
COc1cccc(CN(C)C(=O)CC[C@H]2O[C@@H](n3cnc4c(NC(=O)c5ccccc5)ncnc43)[C@H](O)[C@@H]2O)c1	5845
COc1cccc(-c2nc3nc(C)cc(C)n3c2Nc2ccc3c(c2)OCCO3)c1	5450
C[C@@H]1CCCCO[C@@H](CN(C)C(=O)CCC(F)(F)F)[C@@H](C)CN([C@H](C)CO)C(=O)c2cc(N(C)C)ccc2O1	3575
COc1ccccc1CN1CCNC(=O)C1CC(=O)NCCCN1CCOCC1 (configuration not stated)	3468
Cc1ccc(OC(C)C(=O)Nc2cccc(S(=O)(=O)N3CCCCCC3)c2)cc1 (configuration not stated)	3544
Cc1noc(C)c1C(=O)N1CCC1(C)C(=O)NS(=O)(=O)c1cccc(OC(F)F)c1 (configuration not stated)	3059
CCCCNC(=O)C1(C)CCN1C(=O)Cc1ccc(OC)cc1 (configuration not stated)	3906
CCOC(=O)[C@]12CCCC=C1N(Cc1ccc(Cl)cc1Cl)C(=O)[C@H](CC(=O)NCc1ccccc1)C2	5828
Cc1cc2nc(-c3ccc(Cl)cc3)c(Cc3cccc(F)c3)n2c(C)c1Br	6015
CC(=O)NC(c1ccccc1)c1nc(-c2ccc(F)c(Cl)c2)cs1 (configuration not stated)	3614
Clc1ccc(CSc2nnc(-c3ccccn3)n2Cc2ccco2)cc1Cl	3595
Cc1ccc(-c2cnc3c(c2)C(=O)N([C@H](C)CO)C[C@H](C)[C@@H](CN(C)Cc2ccccc2F)O3)cc1	3404
CC(C)(C)c1ccccc1NC(=O)Nc1nc(C(N)c2ccccc2Cl)cs1 (configuration not stated)	2996
O=C(NCc1ccc(F)cc1F)[C@@H]1CCCN1C(=O)[C@@H]1CCCN1C(=O)c1cccs1	5882
COc1ccc(C2C=C(C)Oc3c2c(=O)oc2ccccc32)cc1OC (configuration not stated)	4243
CC(C)N1CCC1(C)C(=O)Nc1cccc2ccccc12 (configuration not stated)	3604
CCC1NC(=O)c2cccnc2-n2c1nc1cc(F)ccc1c2=O (configuration not stated)	3753
COCOCCn1cc(CN2CCS(=O)(=O)N(Cc3ccc(-c4ccc(Cl)c(Cl)c4)cc3)C(C(C)C)C2=O)nn1 (configuration not stated)	2807
O=C1NC[C@@H](CCCCN2C[C@H](Cc3ccccc3)N(CCc3ccc(O)cc3)C(=O)C2=O)N(CC2CCCCC2)C1=O	5988
COc1ccc(NC(=O)C2(C)Cc3c(-c4ccc5c(c4)OCO5)ccnc3O2)cc1OC (configuration not stated)	2867
CC(=O)Nc1ccc(CN(C)c2c(C)nc3ccc(C(=O)N(C)Cc4ccco4)cn23)cc1	3729
CN(CC(=O)NC(=O)NC1CCCCC1)CC(=O)Nc1ccccc1C(F)(F)F	3207
CC(OC(=O)[C@H](C)N=C1NS(=O)(=O)c2ccccc21)C(=O)Nc1ccc(F)c(F)c1F (some centres not stated)	3538
O=C1NC[C@@H](CCCCN2CCN(CCC3CCCCC3)C(=O)C2=O)N(CC2CCCCC2)C1=O	5623
Cc1c(C(=O)NCc2ccc(Cl)c(Cl)c2)sc(=O)n1Cc1cccc(F)c1	5361
COc1ccc(C(C)(O)c2nc(-c3ccc(OC)c(OC)c3)cs2)cc1 (configuration not stated)	3662
Cc1ccc(S(=O)(=O)NN=C2CCCc3ccccc32)cc1	3592

Source: PubChem (NMMLSC)
